From PubChem
MgrA DNA FP: S. aureus MgrA activity modulators, primary screen, biochemical, S. aureus Newman, fluorescence polarization; hit rate 0.13% among 84,000; AID 602314, 2012; inhibition, %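 (about 10 µg/mL by stock and volumes)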; MgrA-DNA binding;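 active = above 50% in either of two replicates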;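 also: 0% = protein plus DNA without compound and 100% = DNA alone without protein; higher means less MgrA bound to DNA so lower polarization; one replicate is shown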
S aureus helic: inhibitors of S. aureus replicative helicase, primary screen, biochemical, fluorescence unwinding readout; inhibition, %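 (tested at about 80 µM)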; AID 485395, 2010; hit rate 0.05% among 120,000; purified S. aureus helicase, fluorescence unwinding assay; about half of the hits fall short of the stated cut;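 active = both duplicates at 50% or more, or one of them with a favoured structure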;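 also: 0% = mean of negative control wells and 100% = mean of positive control wells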
* hit, by the source's call; · = no result given. This is a subset; the hit share may differ from the screen's.

nr	SMILES	MgrA DNA FP	S aureus helic
1	COC(=O)c1ccc(Cc2ccccc2)o1	1.4	5
2	Oc1ccccc1CNc1ccc2c(c1)ncn2C1CCCCC1	0.3	6
3	N#C/C(C(=O)NCCN1CCOCC1)=c1/s/c(=C/c2ccccn2)c(=O)n1-c1ccc(F)cc1	·	-17
4	O=C(NCc1cccs1)c1ccc(NC(=O)C2CCCO2)cc1 (stereo not drawn)	·	5
5	COCc1cc(=O)n2c([nH]c3ccccc32)c1C#N	1.3	8
6	Cc1ccc(N2C(=O)c3oc4cc(C)c(C)cc4c(=O)c3C2c2ccc(O)cc2)nc1 (stereo not drawn)	-0.2	12
7	COC(=O)c1sccc1OCc1cccc(C(F)(F)F)c1	1.6	·
8	CCCSc1nnc2c(n1)OC(c1ccc([N+](=O)[O-])o1)Nc1ccccc1-2 (stereo not drawn)	25	·
9	CCn1cc(/C=C(\NC(=O)c2ccccc2Cl)C(=O)N2CCc3ccccc32)c2ccccc21	-1.2	5
10	O=C(CSc1ncc(-c2ccccc2)n1-c1ccccc1)NC1CCS(=O)(=O)C1 (stereo not drawn)	·	-4
11	Cc1ccc(C(C)C)cc1S(=O)(=O)Nc1ccccn1	0.2	2
12	C=C(C)c1cccc(C(C)(C)NC(=O)N2CCN(c3ccc(F)cc3)CC2)c1	·	16
13	CC1CC(C)CN(Cc2nc3c(c(=O)n(C)c(=O)n3C)n2CC(N)=O)C1 (stereo not drawn)	-1.6	5
14	O=c1[nH]cnc2scc(C3COc4ccccc4O3)c12 (stereo not drawn)	·	4
15	CCNc1nc(F)cc(=O)[nH]1	1.5	6
16	Cc1nc(/C(N)=N/O)cs1	-1.9	·
17	CCOC(=O)CC(C)(O)c1ccccc1 (stereo not drawn)	-0.5	2
18	COc1ccc2[nH]c(C(=O)O)c(CCC(=O)O)c2c1	·	-24
19	CSc1nn(-c2ccccc2)cc1C(=O)Nc1ccccc1	0.2	·
20	O=C(CCn1c(=O)oc2ccccc21)NCCC1=CCCCC1	-2.1	7
21	COc1cccc(NC(=O)CSc2ncnc3c2oc2ccccc23)c1	·	13
22	CCOc1cc(S(=O)(=O)N2CCC(N3CCOCC3)CC2)c(OCC)cc1-n1cnnn1	·	-9
23	CC(C)(CN1CCN(Cc2ccccc2)CC1)NS(=O)(=O)c1ccccc1	·	-17
24	O=S(=O)(c1cccc(Cl)c1)N1CCC(O)(c2ccc(Cl)cc2)CC1	2.7	·
25	O=C(Cc1ccccc1)Nc1cccc(C(=O)O)c1	-1.9	·

Shown screen by screen: entries from further up
[7] COC(=O)c1sccc1OCc1cccc(C(F)(F)F)c1
[8] CCCSc1nnc2c(n1)OC(c1ccc([N+](=O)[O-])o1)Nc1ccccc1-2 (stereo not drawn)
[9] CCn1cc(/C=C(\NC(=O)c2ccccc2Cl)C(=O)N2CCc3ccccc32)c2ccccc21
[10] O=C(CSc1ncc(-c2ccccc2)n1-c1ccccc1)NC1CCS(=O)(=O)C1 (stereo not drawn)
[11] Cc1ccc(C(C)C)cc1S(=O)(=O)Nc1ccccn1
[12] C=C(C)c1cccc(C(C)(C)NC(=O)N2CCN(c3ccc(F)cc3)CC2)c1

Assay by compound,7,8,9,10,11,12
MgrA DNA FP,1.6,25,-1.2,·,0.2,·
S aureus helic,·,·,5,-4,2,16

Carrying on.
nr	SMILES	MgrA DNA FP	S aureus helic
26	CCCS(=O)(=O)c1cnc(C2COc3ccccc3O2)nc1N (stereo not drawn)	-1.7	·
27	Cc1cc(/N=C/c2cc(C)n(Cc3ccccc3)c2C)n(CCC#N)n1	2.0	-28
28	O=C(O)CCn1cc(C=C2C(=O)NC(=O)NC2=O)c(-c2ccc(F)cc2)n1	·	-12
29	NC(=O)N1CCC(=O)Nc2ccccc21	-2.5	9
30	CN(C)C(CNC(=O)c1cc2ccccc2cc1O)c1ccccc1 (stereo not drawn)	·	-3
31	COC(=O)C1=CN(C)C=C(C(=O)OC)C1c1cccc(F)c1	·	3
32	COc1ccc(-c2nc(SC3CCCC3)c3c(=O)n(C)c(=O)n(C)c3n2)cc1	·	6
33	COc1c(Br)cc(Br)c2c1OCCO2	·	27
34	COC(=O)c1c(-c2ccccc2)noc1C	-0.7	·
35	OCCN1CCN(C2CCN(C3CCCCCC3)CC2)CC1	·	-7
36	OC1(C#CCN2CCCCC2)CCCCC1	·	15
37	CC(=O)NC(=O)c1ocnc1C	-3.0	·
38	Cn1c(=O)c2[nH]c(NCc3ccccc3)nc2n(C)c1=O	·	24
39	N#Cc1ccc(Nc2ccccc2)c(N)c1	1.9	7
40	FC(F)(F)Oc1ccc(Nc2n[nH]c(=S)s2)cc1	6.6	·
41	CCCc1noc2c1C1=NNC(=O)C1C(C)(C)C2 (stereo not drawn)	-0.8	2
42	Cc1nn(-c2ccccc2)c(N)c1-c1ccc(Cl)cc1	-0.2	·
43	CC1(C)CC(=O)C2=C(C1)Nc1ccccc1N(C(=O)Cc1ccccc1)C2c1ccc([N+](=O)[O-])s1 (stereo not drawn)	-0.3	·
44	Nc1nc(CNS(=O)(=O)c2ccccc2)nn1S(=O)(=O)c1ccccc1	0.3	9
45	Cc1ccc2oc3nc(N)c(-c4ccc(Cl)cc4)cc3c(=O)c2c1	-2.2	1
46	Cn1c(SCc2ccc(Cl)cc2)nnc1-c1ccc2ncccc2c1	-3.9	·
47	Cc1cc(OCC(=O)Nc2ccc3c(c2)OCCO3)cc(C)c1Cl	-0.9	11
48	Cc1cc2ccccc2n1CCNC(=O)Cc1cccs1	·	-8
49	CCn1c(=O)c(C(=O)CSc2nnc3ccccn23)c(N)n(Cc2ccccc2)c1=O	·	-9
50	CCOc1ccccc1N(C)C(=O)c1cn(C)c(=O)c2ccccc12	·	-23
51	CN(c1ccccc1C(=O)O)S(=O)(=O)c1ccc(F)cc1	0.5	-2
52	O=C(O)c1cc(-c2ccc(F)cc2)on1	-6.8	2
53	O=C(O)CCC(=O)N1N=C(c2ccccc2)CC1c1ccccc1F (stereo not drawn)	3.8	2
54	Cc1cc(NC(=O)Cn2cnc3c(oc4ccccc43)c2=O)no1	·	-7
55	CCCn1c(=NC(=O)c2ccccc2)c(C#N)cc2c(=O)n3cccc(C)c3nc21	·	3
56	S=C1N(CN2CCOCC2)CCN1CN1CCOCC1	-1.6	7
57	Cc1nc2ccc(Br)cc2c(=O)o1	-1.6	·
58	COC(F)(C(N)=O)C(F)(F)F (stereo not drawn)	1.3	·
59	N#Cc1oc2ccccc2c1NC(=O)CSc1nnc(-c2ccccc2)n1Cc1ccco1	·	-8
60	COC(=O)Cc1csc(Nc2ccccc2)n1	·	8
61	N#CCc1nc(C23CC4CC(CC(C4)C2)C3)cs1	·	-23
62	CC1(C)CC2(CCO1)OC(=O)CC2C(=O)NCc1ccccc1 (stereo not drawn)	0.0	-15
63	COc1ccc(-c2nnc(SCC(C)C)o2)cc1	·	-6
64	O=C(O)CC(c1ccc(F)cc1)N1Cc2ccccc2C1=O (stereo not drawn)	·	13
65	CN(C)c1ccc(C=NCC2(O)CCOC(C)(C)C2)cc1 (stereo not drawn)	·	-25
66	O=C(NCCNc1nccc(C(F)(F)F)n1)c1ccccc1	-2.3	·
67	CCS(=O)(=O)N1CCN=C1SCc1ccc(C)cc1	·	17
68	Cc1ccc(S(=O)(=O)NC2CCCC2)cc1	-3.3	4
69	CCOc1cc(-c2noc(N)c2C(=O)OC)cc(OCC)c1OCC	·	5
70	COc1ccc(N(CCC#N)S(=O)(=O)c2ccc(Cl)cc2)cc1	-1.1	-2
71	N/C(CS(=O)(=O)Cc1ccco1)=N\O	-1.4	·
72	CCC(=O)Nc1ccccc1-c1nnc(SCc2ccccc2)[nH]c1=O	1.6	-7
73	COc1ccc(C2=NOC(C(=O)NC(C)C)C2)cc1 (stereo not drawn)	0.7	12
74	Cc1cc(NC(=O)N2CCC(CN3CCC(C)CC3)CC2)ccc1Br	0.0	3
75	COC(=O)CNC(=O)c1coc2ccccc2c1=O	·	-27

Continuation:
nr	SMILES	MgrA DNA FP	S aureus helic
76	CC(C)Oc1ccc(NC(=O)C2COc3ccccc3O2)cc1 (stereo not drawn)	-3.0	18
77	CNC(=O)NNC(=O)c1cccnc1	-2.1	·
78	O=C1c2ccccc2C(=O)N1c1cccnc1	·	3
79	NC(=O)c1cc(S(=O)(=O)N2CCOCC2)ccc1F	1.4	6
80	Cc1ccc(NC(=O)CC2(c3ccc(Br)cc3)C(=O)c3ccccc3C2=O)cc1	-0.8	16
81	CCc1ccc(NC(=O)c2cnc3sccn3c2=O)cc1	0.6	14
82	CCC(Sc1nncn2c1cc1sccc12)C(=O)Nc1ccccc1C (stereo not drawn)	0.2	2
83	CCCCNC(=O)C1CC(=O)N(c2ccc(Cl)cc2)C1 (stereo not drawn)	0.3	11
84	CN(C)c1ccc(C2Nc3ccc4ncccc4c3C3=C2C(=O)CCC3)cc1 (stereo not drawn)	·	8
85	CN1CN=C(SCc2ccccc2)NC1	-3.5	·
86	CC(C)Cn1c(CCCNC(=O)C(C)(C)C)nc2ccccc21	·	3
87	CCC(Sc1nnc2c(n1)[nH]c1ccccc12)C(=O)Nc1ccc(S(N)(=O)=O)cc1 (stereo not drawn)	·	13
88	Cc1nnc(Nc2ccc3c(c2)nc2n3CCN(C3CCCCC3)C2)c2ccccc12	·	-5
89	c1ccc(CNc2nnc(-c3cccs3)c3ccccc23)cc1	·	-26
90	CCc1cc2c(cc3c(=O)n(CCCC(=O)NCc4ccccc4)ncn32)s1	·	26
91	COc1cc(CN2CCC(N3CCN(C)CC3)CC2)cc(OC)c1OC	·	8
92	O=C(Cn1ncc2ccc(Cl)cc21)NC1CCCC1	-0.5	4
93	CCOC(=O)c1c(C=O)oc2c(C)cc(OC(=O)c3ccccc3C)c(Br)c12	0.7	·
94	COc1ccccc1C(CNc1nc(C(F)(F)F)nc2ccccc12)N(C)C (stereo not drawn)	·	10
95	CC(C)Cc1nc2ccccc2[nH]1	0.1	14
96	COc1ccccc1NNC(=O)c1cccnc1Oc1ccccc1	·	31
97	CCCCCn1cnc2c1c(=O)[nH]c(=O)n2C	-7.0	6
98	COc1ccc(C(=O)N(c2ccccn2)c2ccccn2)cc1OC	·	-8
99	CC(C)(C)C1(C)OC(=O)C(=Cc2ccc(C(=O)O)cc2)C(=O)O1 (stereo not drawn)	·	21
100	O=C(CSc1nc2c(c(=O)[nH]1)CN(Cc1ccc(Cl)cc1)CC2)NCc1ccccc1	·	-12
101	CCC(=O)Nc1ccccc1C(=O)Nc1ccccc1	-7.1	15
102	Cc1cccn2cc(-c3cccc(S(=O)(=O)N4CCOCC4)c3)nc12	-2.1	12
103	O=C(O)CCCC(=O)Nc1ccccc1N1CCOCC1	-4.8	-7
104	O=C(O)c1cnc(SCC(=O)N(C2CCCCC2)C2CCS(=O)(=O)C2)n1-c1ccc(F)cc1 (stereo not drawn)	·	16
105	O=C(O)C1CCN(c2nc3ncccc3nc2-c2ccccc2)CC1	0.8	4
106	CC(C)(C)c1ccc(OC/C(N)=N/O)cc1	2.5	·
107	CCc1ccccc1NC(=S)N1CCC(N(C)CCN2CCOCC2)CC1	-0.1	7
108	COC(=O)c1c(C(=O)OC)c2n(c1C)CCC2	·	-4
109	COc1cc(C2CC(=O)C=C(O)C2)cc(OC)c1OC (stereo not drawn)	·	4
110	CNC(=O)CSc1nnc(C(F)(F)F)n1N	·	-13
111	COc1ccc(CSCC(=O)NC2CC3CCC(C2)N3C)cc1 (stereo not drawn)	-1.1	·
112	Cc1ccc(Cl)cc1N1CCN(C(=O)C2CCCN(S(=O)(=O)c3cnc[nH]3)C2)CC1 (stereo not drawn)	·	6
113	O=S(=O)(c1ccc(Cl)cc1)N1CCOCC1	-1.1	16
114	Cc1ccccc1-n1cc(-c2ccc(Br)cc2)nc1SCC(N)=O	0.0	·
115	CN(C(=O)COC(=O)c1ccccc1C(=O)N1CCN(c2ccccc2)CC1)c1ccccc1	·	-8
116	Cc1nc(CSCc2ccc(Cl)cc2Cl)cs1	0.9	·
117	Cc1ccc(C(=O)CSc2nnc3[nH]c(=O)cc(C)n23)cc1	·	13
118	O=C(Nc1nc2nc(-c3ccccc3)cc(=O)n2[nH]1)c1ccccc1	·	18
119	Cc1csc(NC(=O)c2cccs2)n1	-1.4	-22
120	Cc1ccc(CNC(=O)CCn2nc(C)c(S(=O)(=O)N3CCCC3)c2C)cc1	·	2
121	CCOc1ccc(N2C(=O)/C(=C/c3cc(Cl)c(OCC(=O)O)c(Cl)c3)C(=O)NC2=S)cc1	9.0	·
122	O=C(O)Cc1csc(-c2ccccc2)n1	-2.0	·
123	N#Cc1ccc(CSC2=Nc3ccccc3C3CC=NN23)cc1 (stereo not drawn)	·	4
124	CN=c1scc(-c2ccc(C)c(C)c2)n1/N=C(\C)c1cccnc1	·	-3
125	COc1cc(OC)cc(/C(N)=N/O)c1	-0.3	·

The results go on.
nr	SMILES	MgrA DNA FP	S aureus helic
126	Cc1ccc(NC(=O)CCn2nc(C)cc2C)c(C)c1	0.6	-14
127	CCOC(=O)c1cc(=O)n2[nH]c(-c3ccc(C)cc3)cc2n1	1.2	0
128	COc1ccc(Oc2ccc(C#N)cc2)cc1	-0.5	·
129	CNC(=O)c1c(NC(=O)/C=C/c2cccs2)sc(C)c1C	·	4
130	CN(C)Cc1nc2c([nH]1)c(=O)[nH]c(=O)n2C	-0.8	2
131	CCOC(=O)c1nc(-c2ccc3c(c2)OCO3)[nH]c1C	·	11
132	Cc1c(C(=O)N2CCNCC2)oc2ccccc12	-0.8	4

Given in transposed form: part of the list above
130. CN(C)Cc1nc2c([nH]1)c(=O)[nH]c(=O)n2C
126. Cc1ccc(NC(=O)CCn2nc(C)cc2C)c(C)c1
Compound	130	126
MgrA DNA FP	-0.8	0.6
S aureus helic	2	-14
